Screens from PubChem.
Tgondii IFNg: T. gondii growth inhibition with IFN-gamma, primary screen, cell-based; Toxoplasma gondii growth in IFN-gamma-treated host cells; hits give low values; reference of the scale not given here; actives 3.8% (n = 69,000); activity change, negative = inhibition, %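 (about 20 µM by stock and volumes)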;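 active = below -70%; inconclusive = fit judged invalid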;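 also: host cells are HeLa cells infected with Toxoplasma gondii; parasite growth read as luciferase light; one replicate is shown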
* marks the source's active call; other numbers are inactive results; u = inconclusive; & = joins results of further samples. Only part of the results is shown (hit frequency here may not be typical).

Preview:
SMILES	Tgondii IFNg
Cc1oc(C2CCN(C(=O)Cc3ccccc3Cl)CC2)nc1C(=O)N1CCOCC1	-35
Cc1cc(C)cc(S(=O)(=O)N2CCC3(CC2)Nc2ccc(Cl)cc2-n2cccc23)c1	-1
Cc1nnnn1-c1ccc(C(=O)N(C)Cc2ccccc2N2CCOCC2)cc1	9

The listing, previewed entries included:
SMILES	Tgondii IFNg
Cc1oc(C2CCN(C(=O)Cc3ccccc3Cl)CC2)nc1C(=O)N1CCOCC1	-35
Cc1cc(C)cc(S(=O)(=O)N2CCC3(CC2)Nc2ccc(Cl)cc2-n2cccc23)c1	-1
Cc1nnnn1-c1ccc(C(=O)N(C)Cc2ccccc2N2CCOCC2)cc1	9
Cn1c(N2CCOCC2)nc2cc(C(=O)Nc3cnc4n3CCCC4)ccc21	9
CCOC(=O)c1csc(-c2snnc2C)n1	-16
COCC(=O)N1CCC2(CC1)CN(Cc1ccccc1Cl)[C@H](CO)c1[nH]c3cc(OC)ccc3c12	-9
COCCCN1C(=O)N(Cc2ccc3ccccc3c2)C(=O)C12CCN(CC1CC=CCC1)CC2 (stereo unspecified)	-7
Cc1nc(CCC(=O)N2CCC(c3[nH]ncc3-c3cccc(F)c3)CC2)n[nH]1	-4
CCCCC(=O)O[C@H]1CC[C@H]2[C@@H]3CCc4cc(O)ccc4[C@H]3CC[C@]12C	-35&-56
Cc1oc(-c2ccc(NC(=O)c3ccc(C(F)(F)F)cc3)cc2)nc1Cn1cccn1	-22
COCC1CN(S(=O)(=O)c2ccccc2C)Cc2cn(C)nc21 (stereo unspecified)	16
C[C@]12CC[C@@H]3c4ccc(O)cc4CC[C@H]3[C@@H]1CC[C@@H]2OC(=O)CCC(=O)O	1
NC(=O)N1C[C@@H]2OCC(=O)N(CC3CCCC3)[C@H]2C1	-30
Cc1cccc(-c2nc(Cn3nnc(-c4nc(-c5cccnc5)no4)c3C)c(C)o2)c1	3
Cc1cc(C(=O)Nc2ccc(N3CCOCC3)cc2)nn1C	219
Cc1nsc2ccc3ccsc3c12	72
Cc1cccc(C(C(=O)NCc2cc(-c3ccco3)on2)N(C)C)c1 (stereo unspecified)	-24
CO[C@@H]1CC[C@H]2CCOc3c(C#N)cccc3C(=O)N(C)CCCC(=O)N(C)C[C@H]1O2	-9
c1ccc(Cn2cccn2)c(CN2CCCn3cncc3C2)c1	-16
CCOC(=O)Cn1nnc(-c2ccc(C(F)(F)F)cn2)n1	22
O=C(NCCc1csc(-c2ccccc2)n1)[C@H]1CSCN1S(=O)(=O)c1ccc(F)cc1	-10
O=C(CSc1nc2[nH]c(=O)cc(O)c2s1)Nc1ccc(Cl)c(C(F)(F)F)c1	6
CN(C)CC(=O)N1CCCC2(CC(Nc3nccs3)CO2)C1 (stereo unspecified)	-3
O=c1[nH]nc(Cc2c[nH]c3ccccc23)n1CCc1ccccc1F	7
CCCS(=O)(=O)N1Cc2cc(C(=O)N(C)C)ccc2C1c1cnco1 (stereo unspecified)	0

Following part:
SMILES	Tgondii IFNg
CSc1nc(N)nc(C23CC4CC(CC(C4)C2)C3)n1	-56
C/C=C/c1ccccc1[C@@H]1[C@H](C#N)N(c2nc(CC)cs2)[C@H]1CO	-24
Cc1cc(C2CCCN2Cc2cnc3c(-c4ccccc4)cnn3c2)on1 (stereo unspecified)	20
CN1c2ccc(-c3ccccc3)cc2[C@@H]2[C@@H](CCN2C(=O)NC2CCCCC2)[C@@H]1CO	u
C[C@H]1CN([C@@H](C)CO)S(=O)(=O)c2ccc(Br)cc2O[C@H]1CN(C)C(=O)Nc1ccccc1F	97
CCOC(=O)c1sc(Nc2ccccc2)c(-c2nc3ccccc3[nH]2)c1N	-32
Cc1noc([C@H]2CNC(=O)[C@H]3CCN(C(=O)N(C)C)CC[C@H]32)n1	1
CCN1Cc2cc(C(=O)Nc3nccs3)nc(-c3cccc(C4=CCCC4)c3)c2[C@H]1CCO	-47
COc1ccc(-c2nc(CN(c3ccc(OC)cc3)S(=O)(=O)c3ccc(OC)cc3)c(C)o2)cc1	-39
CCOC(=O)C1(Cc2ccccc2)CCN(Cc2ccc(Sc3nncn3C)o2)CC1	-6
COCCN1CCC12CCN(Cc1cc(C)n(C)n1)C2 (stereo unspecified)	-2
CC(=O)N(c1ccc2oc(=O)sc2c1)S(=O)(=O)c1ccc(F)cc1	-4
N#Cc1cccc(CN2CCc3nc(N4CCOCC4)nc(NC4CC4)c3C2)c1	-58
COc1cc(NC(=O)CN2CCC3(CC2)N=C(c2cccc(F)c2)C(=O)N3)cc(OC)c1	-31
O=C(NCc1ccccn1)C1CNCCN1C(=O)CCn1ccccc1=O (stereo unspecified)	-4
COc1cccc(C#Cc2ccc([C@@H]3[C@@H](C#N)N(C(=O)c4ccccn4)[C@@H]3CO)cc2)c1	18
O=c1cc(Cn2ccnc2)c2cc3c(cc2o1)CCC3	17
Cc1ccc(CN2CCc3ncc(CNc4ccccn4)n3CC2)o1	40
COCCc1ncc(CN2CCC(c3cccc(Nc4cc(C)on4)n3)CC2)cn1	30
CNC(=O)CC1CC2(CCN(C(=O)N3CCOCC3)CC2)c2ccccc21 (stereo unspecified)	-7
COc1cccc(-c2ccc3n(c2=O)C[C@@H]2N[C@H]3[C@H](C(=O)N3CCCCC3)[C@H]2CO)c1	-13
CN(C)CCNC(=O)c1ccc2nnc3ncn(Cc4ccccc4)c3c2c1	-17
O=C(O)CSc1nnc(Cc2cccnc2)n1-c1cccc(Cl)c1	-2
COc1ccccc1-c1cn2c(C(=O)NCC3CCOC3)csc2n1 (stereo unspecified)	-53
Cn1nc(-c2nccn2CCc2n[nH]c(=O)[nH]2)c2c(Cl)cccc21	-4

An excerpt from further up:
SMILES	Tgondii IFNg
CSc1nc(N)nc(C23CC4CC(CC(C4)C2)C3)n1	-56
C/C=C/c1ccccc1[C@@H]1[C@H](C#N)N(c2nc(CC)cs2)[C@H]1CO	-24
Cc1cc(C2CCCN2Cc2cnc3c(-c4ccccc4)cnn3c2)on1 (stereo unspecified)	20
CN1c2ccc(-c3ccccc3)cc2[C@@H]2[C@@H](CCN2C(=O)NC2CCCCC2)[C@@H]1CO	u
C[C@H]1CN([C@@H](C)CO)S(=O)(=O)c2ccc(Br)cc2O[C@H]1CN(C)C(=O)Nc1ccccc1F	97
CCOC(=O)c1sc(Nc2ccccc2)c(-c2nc3ccccc3[nH]2)c1N	-32

Next records.
SMILES	Tgondii IFNg
COc1ccc2c3c([nH]c2c1)[C@H](CO)N(S(C)(=O)=O)CC31CN(C(=O)Cc2cccnc2)C1	29
CCN1CCN(C(=O)c2scnc2C)C(Cc2ccccc2-c2ccccc2OC)C1=O (stereo unspecified)	152
Nc1cc(-c2ccc(CO)cc2)ccn1	0
CC1=NN(C2=NS(=O)(=O)c3ccccc32)C(C)(O)C1 (stereo unspecified)	42
O=C(OCCCN=C1NS(=O)(=O)c2ccccc21)c1ccncc1	-4
COc1cc(-c2nccn2-c2cccc(-n3cnnn3)c2)cc(OC)c1OC	1
COCCn1cc2c(n1)C(CNC(=O)c1cnc(C)cn1)OCC2 (stereo unspecified)	9
Cc1oc(C2CCN(S(=O)(=O)c3ccc(C#N)cc3)CC2)nc1C(=O)N(C)C	53
Cc1ccc(NC(=O)Nc2ccc(-c3nc(-c4cc(C)ccc4C)co3)cc2)cc1	19
CCCCOc1ccc(CNC(=O)Cn2ncc3c(N4CCN(c5ccccc5)CC4)ncnc32)cc1	37
O=C(NCc1noc(C2CCCO2)n1)c1cnn2c1CCCC2 (stereo unspecified)	-15
CN(C)CC(=O)N[C@@H]1CC[C@@H](CCNC(=O)C2CCC2)O[C@@H]1CO	27
O=C(c1cccc(F)c1)N1CCC(n2cc(-c3cccnc3)nn2)CC1	-49
CCn1cc(C(=O)N2CCN(c3ccccc3OC)C(C)(C)C2)c(C)n1	-4
CC(C)Cc1cc(C(=O)N2CCC(C3CC(=O)c4ccccc4O3)CC2)no1 (stereo unspecified)	8
CC(C)Nc1nc2c(cc1C(=O)N1CCCC1)CCN(Cc1ccccc1)CC2	-3
COc1ccc(CNC(=O)c2ccc(-c3nc(CN4CCc5ccccc54)c(C)o3)cc2)cc1OC	142
Cc1oc(C2CCN(S(=O)(=O)c3cc(F)ccc3F)CC2)nc1C(=O)N1CCCC1	-13
COc1cc2c(cc1OC)C(c1ccccc1)=NCC2	-28
Cc1nonc1C(=O)N(C)CCCc1cnn(C)c1	2
COc1cccc(CN2CC3(C2)[C@H](c2ccccc2)[C@@H](CO)N3Cc2ccccc2OC)c1	-37
COc1ccc(-c2noc(CC(=O)NCc3ccccc3)c2-c2ccc(OC)cc2)cc1	-62
Cc1ccc(CN2CCN(C(=O)c3csc(C)n3)CC2=O)cc1	8
CCn1c(CNC2(c3ccccc3F)CCCC2)cnc1SC	-47
O=C1CCCN1Cc1ccccc1Cn1cc(C2CC=CCC2)nn1 (stereo unspecified)	1

The list continues.
SMILES	Tgondii IFNg
Cc1nc(CNC(C)CCc2c[nH]c3ccccc23)cs1 (stereo unspecified)	7
c1csc(CN2CCC3(CC2)CC(N2CCCC2)CO3)c1 (stereo unspecified)	2
Cc1cc(NC(=O)N2CCC3(CC2)Nc2cc(F)ccc2-n2cccc23)ccc1Br	254
CCOc1ccccc1-c1noc(-c2nnn(Cc3nc(-c4ccccc4OC)oc3C)c2C)n1	4
COc1cccc2c1OCC(C(=O)Nc1ccc3c(c1)N(C)C(=O)CO3)C2 (stereo unspecified)	4
CCc1ccc(S(=O)(=O)NCCc2sc(-c3cccc(F)c3)nc2C)s1	-5
CCCc1nc(C)cc(N2CCCn3nc(C(=O)O)cc3C2)n1	1
CN1CCN2CCN(C(=O)CCCOc3ccccc3)CC2C1=O (stereo unspecified)	-35
Cc1cc(C(F)(F)F)n2nc(C(=O)N3CCC(c4onc5c4CC(C)CC5)CC3)cc2n1 (stereo unspecified)	-27
CC(C)(C)c1noc(C2CCN(S(=O)(=O)c3ccc4c(c3)OCCO4)C2)n1 (stereo unspecified)	-12
O=C(C[C@@H]1CC[C@@H]2[C@H](COC[C@H](O)CN2C(=O)c2cnccn2)O1)N1CCN(c2ccccc2)CC1	-11
COCCC(=O)c1nc(-c2cn(Cc3ccccc3)cn2)n2ccccc12	-10
Cc1c(C)n(C(=O)Cn2nnc3ccccc3c2=O)c2ccccc12	-7
c1n[nH]c(SCCNC2CCN(c3ccc4c(c3)OCO4)CC2)n1	5
COc1ccc(-c2csc(C(N)=O)c2)cn1	-20
CO[C@H]1CN(C)C(=O)c2cc(NS(=O)(=O)c3cn(C)cn3)ccc2OC[C@@H](C)NC[C@H]1C	36
COc1cccc(CCn2ccnc2-c2cccc(O)c2)c1	6
Cc1oc(-c2ccc(NC(=O)c3ccc(F)cc3Cl)cc2)nc1Cn1cccn1	-49
O=C(c1ccccn1)N1C[C@@H]2[C@H](c3ccccc31)[C@@H](CO)N2C(=O)Nc1ccccc1Cl	-9
CCC(=O)N1CC[C@@H]2[C@@H](CO)N(C)c3ccc(-c4ccc(C#N)cc4)cc3[C@@H]21	-60
O=C(NC1CC1)c1cc2n(n1)CCCN(C(=O)Cc1noc3ccccc13)C2	-19
CC(C)c1nccn1CCC(=O)NC1(c2ccc(F)cc2)CCCC1	-4
COc1ccc(CN2CCC3(CC(=O)N(c4ccc5c(c4)OCO5)C3)C2)cc1 (stereo unspecified)	1
COc1ccc(CNC2=NCCNC23CCN(S(=O)(=O)c2ccc(CC(C)C)cc2)CC3)cc1	-26
O=C(c1ccco1)N1CCCn2c(CN3CCCC3)nnc2C1	-6

The final four compounds of the part above are carried over, then new ones follow.
SMILES	Tgondii IFNg
CC(C)c1nccn1CCC(=O)NC1(c2ccc(F)cc2)CCCC1	-4
COc1ccc(CN2CCC3(CC(=O)N(c4ccc5c(c4)OCO5)C3)C2)cc1 (stereo unspecified)	1
COc1ccc(CNC2=NCCNC23CCN(S(=O)(=O)c2ccc(CC(C)C)cc2)CC3)cc1	-26
O=C(c1ccco1)N1CCCn2c(CN3CCCC3)nnc2C1	-6
CC(NCC(=O)Nc1ccc(Cl)cc1F)c1nc(-c2ccccn2)no1 (stereo unspecified)	0
COc1ccccc1-c1nc(Cn2nnc(C(=O)Nc3ccc(F)c(F)c3)c2C)c(C)o1	-5
Cc1cnccc1N1CCN(C(=O)C2CC3(CCNCC3)CN2)CC1 (stereo unspecified)	0
C[C@@H](NC(=O)C[C@H]1CC[C@H]2[C@@H](COc3ccc(NS(=O)(=O)c4ccc(Cl)cc4)cc3C(=O)N2C)O1)c1ccccc1	17
CCS(=O)(=O)N1CCCCN2[C@H](CO)[C@@H](c3ccc(C#Cc4ccccn4)cc3)[C@@H]2C1	40
COc1ccc(NC(=O)N2CCC(c3nc(C(=O)N4CCCCC4)c(C)o3)CC2)cc1F	-44
CC(C)N1CCC2(CC1)CC(NC(=O)[C@H]1CCCO1)c1ccccc1O2 (stereo partly specified)	-50
COc1ccc(NC(=O)Cc2nnc(N)s2)cc1	17
CCCCc1cn(CC2CCN(C(=O)c3cncc(C)c3)CC2)nn1	4
Cc1nc(-c2ccc(F)cc2)sc1CCNC(=O)c1ccccc1F	-37
CCOC(=O)c1nn(CCc2ccccc2)c2c1CN(C(=O)Cn1nc(C)cc1C)CC2	-3
CCn1c(=O)c(C(=O)Nc2ccc(C)cc2C)c(O)c2ccccc21	66
CC(C)N(C)[C@@H]1CCN(C2CCOCC2)[C@@H]1Cc1cnn(C)c1	-1
CSc1cc(C(F)(F)F)cc(SC)c1SC	40
CCc1ccc2nc(C)cc(C(=O)NCc3cccnc3-n3ccnc3)c2c1	-9
O=C(C[C@H]1CC[C@H]2[C@@H](COC[C@H](O)CN2CC2CCOCC2)O1)NCc1ccc(Cl)cc1	-38
Cc1cc(C(=O)NCC2CCN(C)C2)c(NC(=O)C(C)(C)C)s1 (stereo unspecified)	-7

An excerpt from above in order of SMILES length, high to low.
SMILES	Tgondii IFNg
COc1ccccc1-c1nc(Cn2nnc(C(=O)Nc3ccc(F)c(F)c3)c2C)c(C)o1	-5
CC(C)N(C)[C@@H]1CCN(C2CCOCC2)[C@@H]1Cc1cnn(C)c1	-1
CN(C)CC(=O)N1CCCC2(CC(Nc3nccs3)CO2)C1 (stereo unspecified)	-3
